# Screening results (PubChem BioAssay)
# YjeE inh = qHTS Assay for Inhibitors of YjeE | tRNA threonylcarbamoyladenosine biosynthesis protein TsaE (Escherichia coli (strain … | purified YjeE, fluorescence polarisation of a bound ADP probe | AID 605, 2007 | 71,000 compounds, 0.05% hits | Potency, µM; active = well fitted falling curve; inconclusive = weaker or top-dose-only fall, or a rising curve; inactive = flat or poorly fitted curve;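 also: top concentration of the series not given in the record; excess ADP was the control for the full effect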
#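 Purified YjeE (10 uM) with BODIPY Texas Red-labeled ADP probe (2 uM); compounds pin-transferred, 15 min at room temperature. Binding inhibition read as decreased fluorescence polarization; ADP titration as control.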
# Bst PK mod = Pyruvate Kinase | AID 361, 2006 | Potency, µM | 51,000 compounds, 1.2% hits | partly purified Bacillus stearothermophilus pyruvate kinase, luminescence ATP production; ribose 5-phosphate activator present at AC10; in the data active means potency below about 11 µM; inconclusive means mostly about 12 µM to 25 µM; inactive means weaker than that;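 the screen sought inhibitors and activators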;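 also: potency is read from the fitted curve at half-maximal effect; scaled between full activation by ribose 5 phosphate and full inhibition by luteolin; about four in five hits inhibit and the cells do not say which; series up to 57 µM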
# * = called active by the depositor; i = inactive; ? = inconclusive; / = no result given. Not all compounds are listed; the hit share may differ from the screen's.
mol | YjeE inh | Bst PK mod
CCOC(=O)Nc1cccc(NC(=O)c2cc(OC)cc(OC)c2)c1 | i | >57
CC(=O)Nc1ccc(S(=O)(=O)Nc2cccc(NC(=O)C(C)(C)C)c2)cc1 | i | >57
OC(COCc1ccccc1)CN1CCCC1 (stereo not drawn) | i | >57
Oc1ccc2ccccc2c1C=NCc1cn2ccsc2n1 | i | /
CC1(C)CC(=O)c2cnc(N3CCc4ccccc4C3)nc2C1 | i | >57
COc1ccc(-n2nnnc2SCC(=O)Nc2nnc(C)s2)cc1OC | i | >57
CCOc1ccccc1Oc1c(C)oc2cc(OC(=O)N3CCOCC3)ccc2c1=O | i | /
COc1ccc2[nH]cc(CCNc3ccnc(-c4ccc(N(C)C)cc4)n3)c2c1 | i | /
CCOc1ccccc1OCCCCN1CCCC1 | i | >57
O=c1c(-c2cccs2)nc2cnc(N3CCOCC3)nc2n1-c1ccccc1 | i | /

# 2 entries from above, field by field:
CCOc1ccccc1Oc1c(C)oc2cc(OC(=O)N3CCOCC3)ccc2c1=O
  YjeE inh = i
  Bst PK mod = /

CCOC(=O)Nc1cccc(NC(=O)c2cc(OC)cc(OC)c2)c1
  YjeE inh = i
  Bst PK mod = >57

# Later entries.
mol | YjeE inh | Bst PK mod
Cc1noc(C)c1C(=O)Nc1ccc(Cl)cc1C(F)(F)F | i | >57
CC(C)C(=O)N1CCc2cc(-c3csc(N)n3)ccc21 | i | i
CSC1CCCCC1(O)CSc1nc2ccccc2o1 (stereo not drawn) | i | >57
O=S(=O)(c1ccc(NCCc2c[nH]c3ccccc23)nc1)N1CCOCC1 | i | >57
COc1ccc2c(c1)c(C(=O)CN1CCN(C(=O)c3ccco3)CC1)c(C)n2C | i | >57
COc1nc(-c2ccccc2)ccc1-c1noc(C)n1 | i | i
CCCCC(=O)Nc1cc2nn(-c3ccc(OC)cc3)nc2cc1C | i | >57
O=C1C(=O)N(Cc2ccco2)C(c2cccc(Cl)c2)/C1=C(\O)c1ccc2c(c1)OCCO2 (stereo not drawn) | i | >57
COc1ccc(CCn2c(SCC(=O)Nc3cc(C)on3)nc3ccccc3c2=O)cc1OC | i | >57
CC(C)COC(=O)CCNc1n[nH]c(=O)[nH]c1=O | / | >11

# (next part)
mol | YjeE inh | Bst PK mod
CCCC(CCC)C(=O)OC1C[C@H]2CC[C@@H](C1)[N+]2(C)C (stereo partly drawn) | / | >26
O=c1[nH]c(CN2CCN(c3ccccc3Cl)CC2)nc2ccsc12 | i | >57
O=C(CCC1(C(=O)O)CCC(=O)NC1)NCc1ccccc1 (stereo not drawn) | i | >57
CCn1c2ccccc2c2cc(Nc3cc(C)nc4ncnn34)ccc21 | i | /
Cc1ccccc1-n1c(SC/C(O)=C(\C#N)c2nc3ccccc3[nH]2)nnc1-c1ccncc1 | i | /
Cc1ccc(NC(=O)c2cc(-c3ccco3)on2)cc1 | i | >11
COC(=O)c1cc2ccsc2n1CC(=O)Nc1cc(C)cc(C)c1 | i | >57
CCOc1cccc(-c2nnc(SCC(=O)Nc3cc(OC)cc(OC)c3)n2N)c1 | i | >57
CCN1C(=O)CSc2ccc(C(=O)OC)cc21 | i | /
Cc1ccnc(NC(=O)CCC(=O)N(CC(=O)NC(C)(C)C)C2CCCC2)c1 | i | >57

# The results go on:
mol | YjeE inh | Bst PK mod
COC(=O)c1ccc(C=O)cc1 | i | /
CCOC(=O)c1c(C)c(C(=O)Nc2ccc(N(C)C)cc2)c(C)n1CC | i | >57
CCOC(=O)c1cnc(-n2nc(C)cc2C)nc1NCCc1ccccc1 | i | ?
Cc1cccn2c(=O)c3cc(C(=O)N4CCN(C(=O)c5ccco5)CC4)n(C)c3nc12 | i | >57
FC(F)(F)c1ccccc1-c1nc(Nc2ccncc2)c2ccccc2n1 | i | /
NCCCCCCNS(=O)(=O)c1cccc2ccccc12 | i | /
COc1ccc(OC)c(C(=O)CN2C(=O)NC(C)(c3ccccc3)C2=O)c1 (stereo not drawn) | i | >57
O=C(Cn1c(=O)sc2ccccc21)Nc1ccc(S(=O)(=O)N2CCCC2)cc1 | i | >57
O=S1(=O)N=CN(Cc2cccc(F)c2)c2ccccc21 | i | >57
O=C(NCC1CCCO1)c1nc2c(nnn2Cc2ccc(F)cc2)c(=O)[nH]1 (stereo not drawn) | i | >57

# Other structures follow.
mol | YjeE inh | Bst PK mod
O=c1cccc(-c2ccc(Br)cc2)o1 | i | /
O=C(CSC1=NCCN1)NC12CC3CC(CC(C3)C1)C2 | i | >57
CSc1ncc(Cl)c(C(=O)NCc2ccc3c(c2)OCO3)n1 | i | >57
CCOC(=O)c1sc2ncnc(NCC(c3cccs3)N(C)C)c2c1C (stereo not drawn) | i | >57
CC(C)C[C@H](NC(=O)Nc1cccc(C(F)(F)F)c1)C(=O)O | i | >57
CC1(C)CC(=O)C(C=Nc2ccc3[nH]ncc3c2)=C(O)C1 | i | /
Cn1c(=O)oc2cc(S(=O)(=O)NCCC(=O)NCCc3ccc(Cl)cc3)ccc21 | i | >57
COc1ccccc1OCCSc1nc2ccccc2c(=O)[nH]1 | i | /
O=C(c1ccco1)N1CCC[C@@]2(CCN(c3ccccn3)C2)C1 | i | /
CCCC[C@@H]1C[C@H]1C(NC(=O)c1cccnc1)c1ccc(-c2ccccc2)cc1 (stereo partly drawn) | i | /

# Some of the entries above, reformatted:
> Cn1c(=O)oc2cc(S(=O)(=O)NCCC(=O)NCCc3ccc(Cl)cc3)ccc21
  YjeE inh: i | Bst PK mod: >57

> COc1ccccc1OCCSc1nc2ccccc2c(=O)[nH]1
  YjeE inh: i | Bst PK mod: /

> O=C(c1ccco1)N1CCC[C@@]2(CCN(c3ccccn3)C2)C1
  YjeE inh: i | Bst PK mod: /

> CCCC[C@@H]1C[C@H]1C(NC(=O)c1cccnc1)c1ccc(-c2ccccc2)cc1 (stereo partly drawn)
  YjeE inh: i | Bst PK mod: /

# The list goes on.
mol | YjeE inh | Bst PK mod
CCc1sc(C(=O)Nc2ccsc2C(=O)OC)cc1Br | i | >57
CCOC(=O)CNc1nc(C#N)nc(N2CCOCC2)n1 | i | >57
O=C(Cn1c(C(=O)NCC2CCCO2)cc2sccc21)c1ccccc1 (stereo not drawn) | i | >57
O=C(O)CCC(=O)c1ccc2ccc3cccc4ccc1c2c34 | i | /
N/C(CN1CCCC1=O)=N\O | i | >57
CCCCN(C(=O)NC(=O)Nc1ccccc1C)S(C)(=O)=O | i | >57
CN(C)c1ccc(/C=C/c2cc[n+]([O-])cc2)cc1 | i | /
Cc1cc(C)n(-c2ncnc3sc(C)c(C)c23)n1 | / | >26
CCCCOc1ccccc1Cn1c(=O)oc2ccccc21 | i | >57
Cn1cc(-c2nc3cnc(N4CCOCC4)nc3n(C3CC3)c2=O)c2ccccc21 | i | /

# Following part:
# The line under a structure holds: YjeE inh | Bst PK mod
CCOc1cc2c(cc1OCC)C(C(=O)O)C(c1cc(OC)c(OC)c(OC)c1)N(C)C2=O (stereo not drawn)
    i | >57
COc1ccc(N(CC(=O)Nc2ccc3c(c2)OCO3)S(=O)(=O)c2ccccc2)c(OC)c1
    i | /
O=C(NC1CCS(=O)(=O)C1)N1CCCCC1 (stereo not drawn)
    / | >26
CCNS(=O)(=O)c1cc(Br)ccc1OC
    i | >57
Cc1ccc(-c2nc3c(=O)n(C)c4ccccc4c3o2)cc1
    i | 0.17*
Cc1cc(C)c(NC(=O)CS(=O)CC(=O)N2CCN(c3ccc(F)cc3)CC2)c(C)c1 (stereo not drawn)
    i | >57
COc1ccccc1NC(=O)Nc1ncccc1C
    i | /
O=C(COC(=O)C1COc2ccccc2O1)NC(=O)Nc1ccc2c(c1)OCCO2 (stereo not drawn)
    i | >57
C=CCN(C(=O)CNC(=O)c1ccco1)C(C(=O)NC1CCCCC1)c1ccccc1F (stereo not drawn)
    i | >57
CCCCNc1nc(C)nc2c1nc(-c1ccccc1)n2C(C)CCCN(CC)CC (stereo not drawn)
    i | /
O=C1CCCN1CCC1CCN(C2CC(=O)N(c3ccc(F)cc3)C2=O)CC1 (stereo not drawn)
    i | >57
CCC(C)NC(=O)N[C@@H](CCSC)C(=O)O (stereo partly drawn)
    i | >57
CCc1ccc(-n2c(SCC(=O)Nc3cc(C)[nH]n3)nc3[nH]ncc3c2=O)cc1
    i | >57
COCCn1c(=O)c(-c2cc(F)cc(F)c2)nc2cnc(N3CCOCC3)nc21
    i | /
COCCCNC(=O)Cn1cc(C(C)=O)c2ccccc21
    i | >57
CCc1ccc(CCC(=O)Nc2nccs2)o1
    i | >57
CCCC1=C(C(=O)OCC)C(c2ccc(NC(C)=O)cc2)NC(=O)N1 (stereo not drawn)
    i | >57
CCOC(=O)CNC(=O)CNC(=O)c1ccc(OCC(C)C)cc1
    / | >26
O=C(Nc1ccc2oc(-c3ccncc3)nc2c1)c1ccccc1F
    i | /
COc1ccc(C(=O)CN2CCN(c3ccc(F)cc3)CC2)cc1OC
    i | >57
O=C(O)Cc1cccc2c(=O)cc(-c3ccccc3)oc12
    i | /
Cc1cccc(NC(=O)Cn2nnc(-c3ccc(CN4CCCC4)cc3)n2)c1C
    i | /
O=C(NCCc1nc2ccccc2[nH]1)c1ccc(F)cc1
    i | >57
COCCn1c(SCC(=O)OC(C)C)nnc1-c1ccccc1
    i | >57
COc1ccc(-c2nnc3sc(C4CCCCC4)nn23)cc1OC
    i | >57
CCOc1ccc(N(C(C)=O)C2C=CS(=O)(=O)C2)cc1 (stereo not drawn)
    i | /
COC(=O)c1sc(N)c(C(=O)OC)c1COC(=O)c1c(C)noc1C
    i | >57
COc1cccc(NC(=O)CCCn2c(=O)[nH]c3ccccc3c2=O)c1
    i | >57
COc1ccc(-c2c(C)nn3c(N4CCC(C(=O)N5CCCCC5)CC4)cc(C)nc23)cc1OC
    i | /
O=C(Nc1ccon1)c1csc2c1CCCC2
    i | >57

# The listing continues:
# The line under a structure holds: YjeE inh | Bst PK mod
CC1CN(C2CCCCC2)c2nc3c(c(=O)[nH]c(=O)n3C)n2C1 (stereo not drawn)
    i | >57
O=C(Nc1ccncc1)c1ccc2c(c1)OCCO2
    i | /
CN(C)S(=O)(=O)c1ccc2c(c1)c(=O)c(C(=O)NCCCN1CCCCCC1)cn2C
    i | /
CC1CC(=O)c2cnc(Nc3cccc(C(F)(F)F)c3)nc2C1 (stereo not drawn)
    i | >57
CCCN1CN(Cc2ccco2)c2nc3ccccc3n2C1
    i | >57
CCOC(=O)c1ccccc1N1C(=O)CSC1=S
    i | /
O=C1CCCC2=C1C(c1ccc3c(c1)OCO3)c1c([nH]n(-c3ccccc3)c1=O)N2 (stereo not drawn)
    i | >57
Cc1nc(N2CCOCC2)c2nc(-c3ccccc3)n(CCCN(C)C)c2n1
    i | /
O=C(NCCc1ccccc1)c1ccc(=O)oc1
    i | >57
Cc1ccc(S(=O)(=O)N2CCCC2C(=O)OCC(=O)Nc2ccc3c(c2)OCO3)cc1 (stereo not drawn)
    i | i
Br/C(=N\Nc1nn[nH]n1)c1ccncc1
    i | /
COc1ccccc1NC(=O)CCN1CCCCCC1
    i | >57
COC(=O)c1ccc(OC)c(CSc2nnc(COc3cccc(C)c3)o2)c1
    i | >57
COC(=O)c1ccc(-n2nnnc2SCC(=O)NCc2cccc(C(=O)O)c2)cc1
    i | >57
BrC(Br)C(Br)Br
    i | /
Cn1c(CNC(=O)Nc2ccccc2)nnc1SCc1ccccc1
    i | >57
CCc1cc(=O)oc2cc(C)c3c(C)coc3c12
    i | >57
Fc1cc2nc(-c3ccncc3)[nH]c2cc1F
    i | i
COc1ccc(C(=O)Nc2cccc(OC)c2)cc1
    i | /
Cc1cc(=O)n2c(-c3ccccc3C)n[nH]c2n1
    i | >57
Cn1c(CSCc2ccc(F)cc2)nnc1SCC(=O)Nc1nccs1
    i | >57
Cc1ccc(S(=O)(=O)N2CC(=NO)C2)cc1
    i | >11
Cc1csc2nc(CNC(=O)C3CC=CCC3C(=O)O)cn12 (stereo not drawn)
    i | /
CNC(=O)c1cc2ccc(OC)cc2oc1=O
    i | >57
CCN(C(=O)c1ccc(C(C)(C)C)cc1)c1nnc(Cn2nnc3ccccc32)s1
    i | >57
COC(=O)/C=c1\sc2ncnn2c1=O
    i | >57
O=c1cnc2cnc(Oc3ccccc3)nc2n1CCc1ccccc1
    ? | /
CC(C)OCCCNC(=O)CCN1C(=O)COc2ccccc21
    i | >57
CC(C)(Sc1ccc(CCN(CCCCC2CCCCC2)C(=O)NC2CCCCC2)cc1)C(=O)O
    i | /
O=S(=O)(c1ccccc1)c1cccc(S(=O)(=O)N2CCCCC2)c1
    i | >57

# Continued.
# The line under a structure holds: YjeE inh | Bst PK mod
CCn1c(SCC(=O)c2ccc(OC)cc2)nnc1C(C)NC(=O)c1ccc(OC)cc1 (stereo not drawn)
    i | >57
COc1ccc(C2C(C(=O)Nc3ccccn3)=C(C)Nc3ncnn32)c(OC)c1 (stereo not drawn)
    i | /
CCn1nnnc1Oc1ccc(Cl)cc1
    i | >57
CN1CCN(c2nc(Nc3cccc(C(F)(F)F)c3)nc(N3CCOCC3)n2)CC1
    i | >57
Cc1ccc(NC(=O)C(C)Sc2nnc(-c3cccnc3)o2)cc1 (stereo not drawn)
    i | >57
CCOC(=O)c1sc2ncnc(N3CCN(C(=O)OCC)CC3)c2c1C
    i | >57
COc1cc2c(C#N)c(N3CCN(c4ccccc4OC)CC3)nc(N)c2c(N)n1
    i | /
CCOC(=O)CSc1nnc(CNC(=O)c2cccs2)n1Cc1ccccc1
    i | >57
COc1ccc(C(=O)N2CCCC2)cc1S(=O)(=O)N1CCOCC1
    i | >57
CCOc1cc(N2CCOCC2)c(OCC)cc1NC(=O)c1nc2nc(C)cc(C)n2n1
    i | >57
Cc1ccccc1N(C)S(=O)(=O)c1ccc2[nH]cc(C(=O)NCC3CCCO3)c(=O)c2c1 (stereo not drawn)
    i | >57
